# Screening data (PubChem BioAssay)
# Mtb MenB inh: Mtb MenB enzyme inhibition | MenB enzyme assay, absorbance read-out; some hits fall short of the stated cut | P9WNP5 | 100,000 compounds, 0.43% hits | AID 540299 | inhibition, %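 (about 12 µg/mL by stock and volumes)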;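 active = mean of two replicates above 30%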;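 note: 0% = no compound and 100% = wells with inactive enzyme; the first replicate is given; strong numbers were not always called active; inactives centre near -10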
# MbtI inh: MbtI salicylate synthase inhibition; P9WFX0; purified MbtI enzyme, fluorescence intensity read-out; inhibition, %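 (about 17 µg/mL by stock and volumes)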; 100,000 compounds, 0.89% hits; AID 493033;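 active = above 50% in both replicates, above 80% if mildly self-fluorescent; inactive = the rest, strongly fluorescent compounds included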;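 note: 0% = mean of negative and 100% = mean of positive controls; one replicate is shown; some compounds called inactive have numbers as strong as hits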
# Target sequence (P9WFX0 whole entry, looked up): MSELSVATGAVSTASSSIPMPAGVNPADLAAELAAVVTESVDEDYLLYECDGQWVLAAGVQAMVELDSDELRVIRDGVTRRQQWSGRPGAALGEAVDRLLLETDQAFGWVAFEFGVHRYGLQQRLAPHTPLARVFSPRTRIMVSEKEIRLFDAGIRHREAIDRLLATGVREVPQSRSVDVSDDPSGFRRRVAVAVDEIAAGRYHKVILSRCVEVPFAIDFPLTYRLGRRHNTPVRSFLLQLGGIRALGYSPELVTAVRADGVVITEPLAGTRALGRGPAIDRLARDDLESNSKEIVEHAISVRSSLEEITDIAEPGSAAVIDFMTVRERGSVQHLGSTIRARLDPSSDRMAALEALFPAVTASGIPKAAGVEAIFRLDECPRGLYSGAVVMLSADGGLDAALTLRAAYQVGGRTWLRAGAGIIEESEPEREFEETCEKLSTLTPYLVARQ
# Polio RdRp inh: poliovirus RNA polymerase inhibition | P03300 | poliovirus polymerase elongation, fluorescence polarization; hits give low values | % elongation, % (compound at 16.7 µg/mL) | 150,000 compounds, 0.66% hits; in the data active = % elongation below about 90%; note: some results filed as inactive read as strong as hits
# Target sequence (P03300 1749-2209 limits assumed): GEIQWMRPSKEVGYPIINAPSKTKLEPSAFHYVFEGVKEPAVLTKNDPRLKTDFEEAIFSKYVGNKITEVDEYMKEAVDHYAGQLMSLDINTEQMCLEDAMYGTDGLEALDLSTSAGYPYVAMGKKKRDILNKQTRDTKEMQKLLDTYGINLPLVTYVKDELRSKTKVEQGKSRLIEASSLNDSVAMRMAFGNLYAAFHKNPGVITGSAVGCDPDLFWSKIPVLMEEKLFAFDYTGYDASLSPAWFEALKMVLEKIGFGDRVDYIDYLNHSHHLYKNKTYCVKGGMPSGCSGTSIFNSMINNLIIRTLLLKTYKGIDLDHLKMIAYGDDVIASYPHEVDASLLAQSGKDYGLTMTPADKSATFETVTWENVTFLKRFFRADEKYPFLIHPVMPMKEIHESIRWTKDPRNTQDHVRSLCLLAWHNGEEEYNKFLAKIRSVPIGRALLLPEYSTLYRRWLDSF
# Polio RdRp inh intensity: further read-out of Polio RdRp inh, marked with its call; % elongation; measured here: total intensity read-out; formula for this scale not given here;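 total fluorescence in place of polarization; lower means less elongation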
# The depositor's hits bear a star; i = inactive; . = no result given. This is a random part of the collection; 1.8% or so of the library scored in one or more.
SMILES,Mtb MenB inh,MbtI inh,Polio RdRp inh,Polio RdRp inh intensity
C1=C(c2cccnc2)Nc2ncnn2C1c1cccs1 (stereo not drawn),-12,i,76,178
CCN(CC)c1nc(OCCNC(=O)Nc2ccccc2)nc(N(CC)CC)n1,-25,-2,104,104
C=CCN(CC=C)S(=O)(=O)c1ccc(C(=O)O)cc1,-14,11,101,92
COc1cccc(/C=C2/Oc3ccccc3N(CC(=O)NCC3CCCO3)C2=O)c1 (stereo not drawn),-15,116,102,103
Cc1onc(-c2ccccc2)c1-c1ccc(S(N)(=O)=O)cc1,6,-6,100,102
Clc1ccc(-c2noc3ncnc(NCCCN4CCCC4)c23)cc1,-5,4,100,102
O=C(NCCO)Nc1ccccc1,10,2,100,101
Cc1ccc(C)c(NC(=O)CN(C)C(=O)CSc2nnc(-c3ccc(Cl)cc3)o2)c1,-12,12,98,98
O=C1c2ccccc2NC(c2ccccc2Cl)N1c1ccc(F)cc1 (stereo not drawn),-16,.,96,102
CCCc1nc2c3ccccc3nc(=S)n2[nH]1,-19,28,103,103
CC1(C)CC(=O)c2c(ncc3c2CC(C)(C)CC3=O)C1,-29,-4,104,103
CC1CCCC(NC(=O)c2ccc(N3CCCC3=O)cc2)C1C (stereo not drawn),-9,6,101,97
FC(F)(F)c1cccc(Nc2ncnc3ccccc23)c1,11,4,100,101
CCCCN(CC)c1ncnc2sc3c(c12)CCC3,-10,9,107,116
CC1=C(C(=O)OC2CCCC(C)C2)C(c2ccccc2Cl)NC(=O)N1C (stereo not drawn),-25,.,107,115
CC(C)NC(=O)Oc1cccc(Cl)c1,-14,-5,100,101
COc1ccc2oc(=O)c(C(=O)N(C)Cc3cccnc3)cc2c1,-54,10,102,103
CC1(C)CC(=O)C(C(NC(=O)c2ccccc2)(C(F)(F)F)C(F)(F)F)=C(O)C1,8,6,105,99
CCCNc1cc(C)oc(=O)c1C(=O)CCC,-17,4,100,104
OCCSc1nc2ccccc2n1Cc1ccccc1,-22,.,103,106
COC(=O)c1c(NC(=O)Nc2ccccc2)sc2c1CCCC2,-23,.,109,100
N#C/C(=C\c1ccccc1OC(F)F)C(=O)O,3,13,96,94
CCn1cc(C(C)NC(=O)Nc2ccccc2C(=O)OC)c(C)n1 (stereo not drawn),-16,78,102,104
CCN(C(=O)CN1C(=O)c2ccccc2S1(=O)=O)c1cccc2ccccc12,.,-6,101,105
CC(C)CC(=O)N/C(N)=N/c1nc2ccccc2o1,7,0,103,104
CC1CCC(NS(=O)(=O)c2cccc(C(F)(F)F)c2)CC1 (stereo not drawn),-8,7,100,98
O=C(c1ccc(COCC(F)(F)F)cc1)N1CCCC1,-9,2,100,101
O=C1Nc2ccc(Br)cc2C1(O)Cc1ccncc1 (stereo not drawn),-6,-20,99,103
COc1ccc(CN(C)C2CCCCC2)c(C)c1C,-20,-7,101,103
C=CCN1C(=O)c2ccc(C(=O)O)cc2C1=O,4,5,.,.

# 4 compounds drawn at random from the list so far:
SMILES,Mtb MenB inh,MbtI inh,Polio RdRp inh,Polio RdRp inh intensity
COc1cccc(/C=C2/Oc3ccccc3N(CC(=O)NCC3CCCO3)C2=O)c1 (stereo not drawn),-15,116,102,103
OCCSc1nc2ccccc2n1Cc1ccccc1,-22,.,103,106
CCn1cc(C(C)NC(=O)Nc2ccccc2C(=O)OC)c(C)n1 (stereo not drawn),-16,78,102,104
CC1CCCC(NC(=O)c2ccc(N3CCCC3=O)cc2)C1C (stereo not drawn),-9,6,101,97

# The main list resumes, repeating the six entries before the break.
SMILES,Mtb MenB inh,MbtI inh,Polio RdRp inh,Polio RdRp inh intensity
CC(C)CC(=O)N/C(N)=N/c1nc2ccccc2o1,7,0,103,104
CC1CCC(NS(=O)(=O)c2cccc(C(F)(F)F)c2)CC1 (stereo not drawn),-8,7,100,98
O=C(c1ccc(COCC(F)(F)F)cc1)N1CCCC1,-9,2,100,101
O=C1Nc2ccc(Br)cc2C1(O)Cc1ccncc1 (stereo not drawn),-6,-20,99,103
COc1ccc(CN(C)C2CCCCC2)c(C)c1C,-20,-7,101,103
C=CCN1C(=O)c2ccc(C(=O)O)cc2C1=O,4,5,.,.
O=C(COC(=O)c1ccc(S(=O)(=O)NCc2ccco2)cc1)NC1CCCCCC1,-26,-12,104,105
O=C1Nc2ccccc2/C1=c1/sc2n(c1=O)CN(c1ccccc1)CN=2,-6,3,103,103
CCOc1ccc(CC(=O)NCCn2c(C)cc3ccccc32)cc1,-18,14,96,104
CCCCOC(=O)c1ccc2c3c(onc13)-c1ccccc1C2=O,-3,23,91,104
CCN1CCc2c(OC)cccc2C1=O,-4,54,100,102
O=c1[nH]c2ccc(Cl)cc2c(=O)n1Cc1ccccc1,-31,-9,100,98
O=C1C(O)=C(Cc2ccccc2)CN1Cc1ccccc1,-30,.,99,104
COc1ccccc1NC(=O)/C=N/OCc1nc2sc(C)c(C)c2c(=O)[nH]1,-11,6,115,122
c1ccc(Cn2c3ccccc3n3nc(-c4ccccc4)nc23)cc1,-26,6,103,105
NC(=O)c1ccccc1OCc1cc2c(cc1Br)OCO2,-29,1,102,95
O=C(OCc1cc(Cl)c2c(c1)OCCO2)C12CC3CC(CC(O)(C3)C1)C2,-9,5,102,99
O=C(CC1SC(N2CCCC2)=NC1=O)Nc1ccc(C(=O)N2CCN(c3ccccn3)CC2)cc1 (stereo not drawn),-20,7,107,108
O=C1c2ccccc2-c2nn(C(=O)c3ccco3)c3cccc1c23,0,0,104,105
COC(=O)C1=C(N)N(c2ccc(C)cc2)C2=C(C(=O)CCC2)C1c1ccc(OC)cc1 (stereo not drawn),-8,.,106,106
Cc1cc(C)nc(SCC(=O)NN)n1,-13,.,109,112
CCC(C)NC(=O)CSc1nc2ccsc2c(=O)n1-c1cccc(Cl)c1Cl (stereo not drawn),-10,-6,101,101
CC(=O)N1CCN(c2ccc(NC(=O)CSc3nc4ccccc4o3)cc2)CC1,-29,-2,103,100
CCCCC(O)(c1ccc(OC)cc1)C(CN1CCOCC1)c1ccccc1 (stereo not drawn),1,0,102,104
COc1ccc([C@H]2CC(=O)c3c(O)cc(O)cc3O2)cc1O,-36,24,104,101
CCN(CC)C(=O)Cn1cc(S(=O)(=O)CC(=O)N2CC(C)OC(C)C2)c2ccccc21 (stereo not drawn),-13,-8,104,100
O=C(NCc1ccc(-c2cccs2)s1)NC(=O)c1ccccc1,-2,40,101,112
CCN(C(=O)Cn1nnc(-c2ccc(Cl)cc2)n1)C1CCS(=O)(=O)C1 (stereo not drawn),13,2,101,96
COc1ccc(C(=O)NC(CO)(CO)CO)cc1OC,-5,.,109,110
CNC(=O)CCc1nc2ccccc2n(-c2ccc(OC)cc2)c1=O,-15,8,108,116
Cc1cc(S(=O)(=O)NCc2nc(N)n(S(=O)(=O)c3ccc(F)c(C)c3)n2)ccc1F,8,-1,101,103
Cc1ccc(S(=O)(=O)N2CCCC2c2nc3ccccc3s2)cc1C (stereo not drawn),5,4,98,100
Cn1nnnc1SCCCNCc1ccsc1,-2,-10,104,102
Cc1ccn2cc(-c3cccc(NC(=O)CCC(=O)O)c3)nc2c1,0,88,101,104
Nn1cc(-c2ccccc2)[nH]c1=S,-28,99,102,96
Cc1ccc(-n2c(C)ccc2-c2ccccc2)cc1,-11,10,103,102
CC(C)NC(=O)CSc1nc2ccccc2n1CC(=O)NC(C)C,-43,-1,103,105
O=C1/C(=C/c2ccc3c(c2)OCO3)NC(=S)N1C1CCCCC1,12,2,100,101
CN1CCC(=NNC(=O)Cc2cn3ccsc3n2)CC1,-12,-6,99,124
O=C(c1cnc(N2CCCC2)nc1)N1CCOCC1,-16,2,102,103
CC1CN(C(=S)Nc2ccccc2)CC(C)O1 (stereo not drawn),-15,-4,98,102
CCc1ccc(/C=C2/C(=O)N(c3ccccc3)N=C2C)cc1,5,.,101,92
CN(C)Cc1ccc(C(=O)O)o1,15,2,100,104
COc1ccccc1N(C)S(=O)(=O)c1ccc(C(=O)N2CC(C)OC(C)C2)cc1 (stereo not drawn),13,24,109,100
O=C(CSc1nc2c(c(=O)[nH]1)CN(Cc1ccccc1)CC2)NCc1ccccc1,-15,-6,105,107
CCNC(=S)N/N=C/c1ccc(C#N)cc1,-41,13,104,111
CCCCn1c(SCC(=O)c2cc(C)n(C)c2C)nc2cc(S(N)(=O)=O)ccc21,-9,-4,103,106
CN(C)S(=O)(=O)c1ccc(NCC(=O)Nc2ccc(SC(F)F)cc2)cc1,-20,-8,101,107
CCC1COC(C)CN1 (stereo not drawn),-9,-4,99,100
CC(C)CN(CC(C)C)Cn1nc(-c2cccc(S(=O)(=O)N3CCOCC3)c2)oc1=S,-21,8,107,103
O=C(NCc1ccc2c(c1)OCO2)Oc1ccccc1,-3,7,103,105
CC(OC(=O)c1ccc2ccccc2n1)C(=O)N(C)c1ccccc1 (stereo not drawn),-16,-8,.,.
CC1(C)CC(NS(=O)(=O)c2ccc(S(=O)(=O)N3CCOCC3)cc2)CCO1 (stereo not drawn),-13,2,102,102
CC1Cc2cc(S(=O)(=O)NCCC(=O)Nc3ccc(F)cc3F)ccc2N1C(=O)C1CC1 (stereo not drawn),-9,-14,100,104
CCOC(=O)c1cnc(-c2cccs2)nc1Nc1ccc(C)cc1,-6,-15,107,110
Cc1ccccc1N1C(=O)C(Cc2ccccc2)N=C1N(CCCN1CCOCC1)Cc1ccco1 (stereo not drawn),-20,-77,100,102

# Remaining list, next part:
SMILES,Mtb MenB inh,MbtI inh,Polio RdRp inh,Polio RdRp inh intensity
CN(C(=O)COC(=O)c1n[nH]c2ccccc12)c1ccccc1,.,40,102,103
S=C(SCc1ncon1)N1CCOCC1,-5,92*,96,101
S=c1nc2ccccc2c2nc(COc3ccccc3Br)[nH]n12,-45,12,102,97
O=C(Cc1noc2ccccc12)N1CCCC1,9,-8,100,106
CC(C)COc1ccccc1C(=O)NC(CO)C(=O)O (stereo not drawn),0,4,101,102
CC1CCN(S(=O)(=O)c2ccc3c(c2)CCN3C(=O)NCc2ccccc2)CC1,11,4,101,102
C=CCN1CCN(C(c2ccccc2Cl)c2nnnn2C2CCCCC2)CC1 (stereo not drawn),15,-2,99,101
O=C(NCC(F)(F)F)c1cccnc1Nc1cccc(C(F)(F)F)c1,-7,3,97,97
COc1ccc(COCC(O)CN(C)Cc2ccc3c(c2)OCCO3)cc1 (stereo not drawn),3,12,98,96
O=C(Nc1ccnn1Cc1cccs1)C(Sc1ccccc1)c1ccccc1 (stereo not drawn),-14,-12,106,102

# Individual results from the results shown.
# `CC1CCN(S(=O)(=O)c2ccc3c(c2)CCN3C(=O)NCc2ccccc2)CC1` in MbtI inh is entered as 4
# `CC(C)COc1ccccc1C(=O)NC(CO)C(=O)O` (stereo not drawn) in MbtI inh is entered as 4
# `C=CCN1CCN(C(c2ccccc2Cl)c2nnnn2C2CCCCC2)CC1` (stereo not drawn) in Mtb MenB inh is entered as 15
# `O=C(Nc1ccnn1Cc1cccs1)C(Sc1ccccc1)c1ccccc1` (stereo not drawn) in MbtI inh is entered as -12
# `CN(C(=O)COC(=O)c1n[nH]c2ccccc12)c1ccccc1` in MbtI inh is entered as 40

# Continuation.
SMILES,Mtb MenB inh,MbtI inh,Polio RdRp inh,Polio RdRp inh intensity
Cc1ccccc1C(=O)N1CCC(C(=O)Oc2ccc3c(c2)OCO3)CC1,-15,4,99,108
CNC(=O)CNC(=O)Nc1ccc(C)cc1,-10,-7,103,107
COc1cccc(CN2c3cccc4cccc(c34)S2(=O)=O)c1,-22,5,99,102
CCN(CC)C(=O)CN1CCC(c2nc3ccccc3[nH]2)CC1,-20,-5,104,108
COc1ccc(C(=O)Cn2c(SC)nc3ccccc32)cc1,.,4,102,104
CCCCCCCc1nnc(NC(=O)c2cccs2)s1,-46,-17,104,102
CC(C)C(NS(=O)(=O)c1ccccc1)C(=O)NC1CCCC1 (stereo not drawn),-5,-12,102,105
CN(C)c1ccc(-c2nc3ccc4ccccc4c3c3c2CCC3)cc1,-26,28,99,101
CC1Oc2c(C(=O)O)cccc2C1C (stereo not drawn),-18,15,102,97
COC(=O)c1cc2occc2n1CC(=O)N(C)C1CCCCC1,-10,2,104,105
O=C1C2C3C=CC(C3)C2C(=O)N1Cc1ccco1 (stereo not drawn),6,-7,102,105
CCOc1ccc(-c2cc(NC(=O)Nc3ccc(F)cc3)c(C(=O)OC)s2)cc1,-15,71,102,106
O=C(NCCc1ccccc1)c1ccc(C(=O)c2ccccc2)o1,-15,.,102,102
CCC(C)N(Cc1nc2ccccc2c(=O)[nH]1)C(=O)/C=C/c1ccco1 (stereo not drawn),-27,43,108,117
O=S(=O)(c1ccc(OC(F)(F)F)cc1)N1CCN(S(=O)(=O)c2cccs2)CC1,5,0,105,109
O=C(COC(=O)Cc1c(Cl)cccc1Cl)NCc1ccco1,.,-7,102,101
CC1CN(C(=O)COC(=O)c2ccc(I)cc2)CC(C)O1 (stereo not drawn),.,-8,102,105
CN(C)CCC(=O)c1ccccc1,.,22,103,93
CCCN(CC1CC1)C(=O)Nc1ccccc1C,-21,-16,104,102
COc1ccc(S(=O)(=O)NCCNc2nc3cc(C)cc(C)c3cc2C#N)cc1,-7,-2,102,105
O=C(/C=C/c1ccccc1)C1CC1,-4,.,98,101
CCOC(=O)Nc1ccc2c(COC(=O)c3cnc(Cl)c(Cl)c3)cc(=O)oc2c1,-5,110,104,114
CCC1CCCCN1C(=O)c1noc2c1CC(C(C)(C)C)CC2 (stereo not drawn),-22,2,103,105
O=C(c1ccccc1)c1nnn(-c2ccccc2)c1Nc1ccccc1,-24,.,102,113
N#CC1=C(N)N(c2sc3c(c2C#N)CCCCC3)C2=C(C(=O)CCC2)C1c1ccccc1 (stereo not drawn),-2,.,95,104
